# Compound activity from PubChem BioAssay.
# MgrA-DNA mod – alters Staphylococcus aureus MgrA binding to DNA | 84,000 tested, 0.13% active | AID 602314 | fluorescence polarization | inhibition, %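 (about 10 µg/mL by stock and volumes)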;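 active means above 50% in either of two replicates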;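 further: 0% = protein plus DNA without compound and 100% = DNA alone without protein; higher means less MgrA bound to DNA so lower polarization; one replicate is shown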
# S aureus helic – blocks Staphylococcus aureus DNA helicase. purified S. aureus helicase, fluorescence unwinding assay; about half of the hits fall short of the stated cut. inhibition, %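 (tested at about 80 µM)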. 120,000 tested, 0.05% active. AID 485395;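 active means both duplicates at 50% or more, or one of them with a favoured structure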;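 further: 0% = mean of negative control wells and 100% = mean of positive control wells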
# Numbers without * were called inactive; x = no result given; & = joins results of further samples.
Molecule,MgrA-DNA mod,S aureus helic
Cc1occc1-c1nnc(SCC(=O)c2ccc3c(c2)CCN3S(C)(=O)=O)n1C,x,3
Cc1onc(-c2ccccc2)c1C(=O)Nc1ccnn1C1CCCCC1,x,22
N#Cc1ccccc1NC(=S)Nc1ccccc1,x,0
N#CC(C#N)=C1c2cc(S(=O)(=O)N3CCCCC3)ccc2-c2ccc(S(=O)(=O)N3CCCCC3)cc21,x,20
COCC(C)n1c(C)cc(C(=O)COC(=O)C2COc3ccccc3O2)c1C (centres undefined),x,-27
CN1CCC(OC(=O)COc2ccc(F)cc2)CC1,0.5,13
Cc1cc(C)n(C(=O)CSc2ccc(C(C)(C)C)cc2)n1,-8.4,12
CCn1c(C(=O)N2CCCC(C(=O)NC(C)c3ccc4c(c3)OCCO4)C2)cc2sccc21 (centres undefined),1.7,-9
NC(=O)CSc1nnc(CNc2ccc(Cl)cc2)n1Cc1ccccc1,1.4,2
Cn1c(=S)[nH]c2cc(S(N)(=O)=O)ccc21,x,19
O=C(Nc1ccc(OCc2ccccc2)cc1)NC1CCCc2ccccc21 (centres undefined),0.4,x
C/C(=N\NC(=O)c1ccc(CN2CCOCC2)cc1)c1ccc2c(c1)OCCO2,3.5,11
O=C(O)c1cc(N=Cc2ccc(N3CCCC3)c(F)c2)ccc1O,1.1,1
CCOc1ccc2nc(N3CCC(C(=O)NCCc4ccc(OC)cc4OC)CC3)sc2c1,x,-2
CCCN(CCC)c1ncnc2c1cnn2-c1ccccc1,x,-8
CN(Cc1ccccc1)C(=O)c1cc2c(Cl)nc3ccccc3c2s1,0.6,-8
NC(=O)CN1C(=O)Cc2ccccc2C1=O,1.9,x
C/C(=N\NC(=O)Cc1cccs1)c1ccc(S(=O)(=O)N2CCCC2)cc1,x,8
O=C(c1ccc(Br)cc1)c1ccc([N+](=O)[O-])cc1,-1.8,x
O=c1c(=Nc2ccc(O)cc2)c(=O)c2ccccc12,12,-28
Cc1ccc(S(=O)(=O)N2N=NC3C4CC(C5CC=CC54)C32)cc1 (centres undefined),-1.2,8
COc1ccc(NC(=O)C2CCCN2c2cccc(C(F)(F)F)c2)cc1OC (centres undefined),-5.3,13
O=C(CCc1ccc(O)cc1)N/N=C/c1coc2ccccc2c1=O,x,-23
Cc1ccc(OCC(=O)O)c(-c2ccno2)c1,1.5,-13
CCc1c(C)sc(NC(=O)C2CC3CCC2C3)c1C(=O)OC (centres undefined),4.4,-22

# 3 structures out of the list, ordered by molecular weight, falling.
Molecule,MgrA-DNA mod,S aureus helic
CCOc1ccc2nc(N3CCC(C(=O)NCCc4ccc(OC)cc4OC)CC3)sc2c1,x,-2
Cc1occc1-c1nnc(SCC(=O)c2ccc3c(c2)CCN3S(C)(=O)=O)n1C,x,3
Cn1c(=S)[nH]c2cc(S(N)(=O)=O)ccc21,x,19

# The main list resumes with the 7 entries that preceded the break.
Molecule,MgrA-DNA mod,S aureus helic
O=C(c1ccc(Br)cc1)c1ccc([N+](=O)[O-])cc1,-1.8,x
O=c1c(=Nc2ccc(O)cc2)c(=O)c2ccccc12,12,-28
Cc1ccc(S(=O)(=O)N2N=NC3C4CC(C5CC=CC54)C32)cc1 (centres undefined),-1.2,8
COc1ccc(NC(=O)C2CCCN2c2cccc(C(F)(F)F)c2)cc1OC (centres undefined),-5.3,13
O=C(CCc1ccc(O)cc1)N/N=C/c1coc2ccccc2c1=O,x,-23
Cc1ccc(OCC(=O)O)c(-c2ccno2)c1,1.5,-13
CCc1c(C)sc(NC(=O)C2CC3CCC2C3)c1C(=O)OC (centres undefined),4.4,-22
CSc1sc(C(=O)N2CCOCC2)cc1-c1nc(-c2ccc(Cl)cc2)cs1,2.4,x
C=CCn1c2ccc(C)cc2c2nc3ccccc3nc21,x,-41
CN(C)S(=O)(=O)c1ccc2ncn(O)c2c1,x,-11
N#CCSc1sc2c(O)cc(=O)[nH]c2c1C#N,15,9
CCN(Cc1ccccc1)C(=O)Cn1c(=O)n(-c2ccc(C)cc2)c(=O)c2ccccc21,1.9,-14
O=C(NCc1ccccc1C(F)(F)F)c1ccc2ccccc2c1,-0.1,-20
CCC1(c2csc(Nc3ccccc3C)n2)CCC(=O)O1 (centres undefined),1.6,6
O=C(CC(=O)NCC1CCCO1)NCC1CCCO1 (centres undefined),-5.6,-13
CN(/N=C1\C(=O)Nc2ccc(F)cc21)c1ncc(C(F)(F)F)cc1Cl,-2.0,x
CCN1C(=O)CSC1=NC12CC3CC(CC(C3)C1)C2,1.9,5
CC1CCN(C(=O)C(C)Sc2nnc3c(n2)[nH]c2ccccc23)CC1 (centres undefined),4.2,7
COC(=O)C1C(=O)Oc2ccc3ccccc3c2C1C(C)(C)C(=O)OC (centres undefined),x,19
CC(C)N(Cc1nnc(-c2ccccc2)o1)C(=O)CN1C(=O)COc2ccccc21,x,1
O=S(=O)(Cc1ccc2nonc2c1)c1ccc(C(F)(F)F)cn1,x,-19
Clc1ccccc1-c1nc(N2CCCC2)c2ccccc2n1,x,-15
CCCCN(C)c1nc(-c2ccc(OC)cc2)nc2ccccc12,x,15
Cc1ccc(OCc2nc(C#N)c(N3CC(C)OC(C)C3)o2)cc1 (centres undefined),0.3,9
O=C(CSc1nc2ccccc2n1CCc1ccccc1)NC1CCS(=O)(=O)C1 (centres undefined),x,-9
COc1ccc(C2Sc3nncn3N2Cc2ccc(C#N)cc2)cc1 (centres undefined),-1.7,3
O=C1OC2CC3CCC2C1C3 (centres undefined),x,23
O=C(CN1C(=O)CCc2ccccc21)NCc1ccccc1,1.0,-1
CN(C(=O)CSCc1ccc(Cl)cc1)c1ccccc1,2.1,x
CCOC(=O)c1ccc(NC(=S)NNC(C)(C)C)cc1,1.3,x
CC1CCCCN1C(=O)Cn1c(=O)n(CC2CCC(C(=O)NC3CCCC3)CC2)c(=O)c2ccccc21 (centres undefined),x,7
CCCNC(=O)Cn1ncc2c3ccccc3n(C)c2c1=O,-0.9,4
O=C(CN1C(=O)c2cccc3cccc1c23)Nc1ccc(S(=O)(=O)N2CCCCCC2)cc1,x,5
CCOC(=O)c1ccc(NC(=O)C2CC(=O)N(C)C(=Nc3ccc(C(=O)OC)cc3)S2)cc1 (centres undefined),0.3,x
COc1ccc2oc(C#N)cc2c1,0.1,x
CC(=O)Nc1ccc(NC(=O)COc2ccc(Cl)cc2Cl)cc1,-1.4,x
Cc1oc(-n2cccc2)c(C#N)c1C(=O)NC1CCCCCC1,x,-2
O=C(c1cnc2c(c1)c(-c1ccccc1)nn2CCO)c1ccccc1O,x,8
CC12CCC(C(=O)Nc3ncc(Cl)cc3Cl)(CC1=O)C2(C)C (centres undefined),x,11
Cc1ccc(NS(C)(=O)=O)cc1F,-0.8,-14
O=C(c1cccs1)N1CCCN(Cc2cccc3ccccc23)CC1,-2.0,x
CCCCc1c(O)nc2sc3ccccc3n2c1=O,-2.9,x
CC(C)C1=NNC(=O)C1(C)C,-0.2,x
O=C1ON=C(c2ccccc2)/C1=C/c1c(Cl)cccc1Cl,-2.1,x
CCCNC(=O)c1c(C)c(C(=O)OCC)n(C)c1C,x,-19
CS(=O)(=O)c1ccc(C(=O)Nc2cccc(Cl)c2)cc1,0.2,x
COC(=O)c1ccccc1S(=O)(=O)Nc1ccc2nc(C)sc2c1,x,-28
CCc1ccc(CNC(=O)c2coc(=O)c3ccccc23)cc1,0.1,4
CSc1nnc2c(n1)OC(c1ccccn1)Nc1ccccc1-2 (centres undefined),0.3,x
CCSc1nnc(-c2cccc(S(=O)(=O)N(C)C)c2)n1-c1ccc(F)cc1,x,-9
COc1ccc(OCC(=O)OCCN2C(=O)c3ccccc3C2=O)cc1,x,-13
CCn1c(C)[n+](CC)c2ccc(Cl)cc21,-1.5,7
COc1ccc(O)c(C(=O)c2cnc3onc(-c4ccc(Cl)cc4)c3c2)c1,x,-5
COCC(=O)OCn1nnc2ccccc2c1=O,-0.6,7
C[C@](N)(Cc1ccc(O)c(O)c1)C(=O)O,4.0&-0.1,x
Cc1cc(N2C(=O)CCC2=O)no1,-3.0,5
Cc1cc(C(=O)CSc2nnc(Cc3ccccc3)o2)c(C)n1CC1CCCO1 (centres undefined),x,3

# The results go on.
Molecule,MgrA-DNA mod,S aureus helic
O=C(NCCc1ccccc1)C1COc2ccccc2O1 (centres undefined),-0.2,x
Cc1cc2cc(OCc3ccccc3)ccc2n1C,4.8,5
O=C(COC(=O)CCC1CCCC1)Nc1ccccc1Br,-0.2,4
COCC(O)CSc1nc(C)cc(C)n1 (centres undefined),1.2,0
CCN(CC)C(=O)COc1cc(C)ccc1C(C)C,x,0
COc1cc2nn3c(C)cc(=O)[nH]c3c2cc1OC,x,3
CCN(CC)S(=O)(=O)c1ccc(NC2c3ccccc3C(=O)N2c2ccccn2)cc1 (centres undefined),x,11
Cc1cc(C)n2nc(SCC(=O)NCc3ccc(Cl)cc3)nc2n1,0.9,8
COC(=O)c1cc(CSc2nnc3c(Cl)cc(Cl)cn23)oc1C,x,-2
CC(C)[C@H](NC(=O)c1ccc(C(C)(C)C)cc1)C(=O)NCc1ccco1,x,4
COc1ccc(Oc2ccc(NC(=O)Nc3ccc(SC(F)(F)F)cc3)cn2)cc1,-0.3,x
CCc1c(C)sc(NC(=O)/C=C/c2cccs2)c1C(=O)OC,-0.8,8
CN1c2ccccc2C(C)(C)C12C=Cc1cc(O)ccc1O2 (centres undefined),x,16
O=C(NCCSc1ccccc1)C1CCCN1S(=O)(=O)c1ccc2ccccc2c1 (centres undefined),-1.1,11
COCCN1C(=O)c2ccccc2C(C(=O)NC2CC2)C1c1cccs1 (centres undefined),x,-10
O=C(O)CCN1C(=O)c2ccncc2C1=O,-3.6,10
Cc1sc2nc(Cn3nnc(-c4cccc(C(F)(F)F)c4)n3)[nH]c(=O)c2c1C,x,-9
CC(C(=O)NCCc1ccccc1)n1c2ccccc2c2cn[nH]c(=O)c21 (centres undefined),x,-30
CC(C)CNC(=O)c1cccc(Cn2cc(Cl)cn2)c1,x,0
Oc1ccccc1C1=NN2C(C1)c1ccccc1OC21CCCC1 (centres undefined),x,-16
O=C(NC1CCCC1)c1cnc(N2CCCC2)nc1,10,4
N#C/C(=C(/O)c1ccc(C(=O)c2ccccc2)cc1)c1nc2ccccc2s1,3.6,-32
O=C(Nc1nn[nH]n1)C1c2ccccc2Oc2ccccc21,1.0,4
O=[N+]([O-])c1ccc(NCCO)nc1,-1.2,x
O=C(NC1CCCc2ccccc21)C1CCCN(c2nnc(-n3cccc3)s2)C1 (centres undefined),-0.8,9
CN1/C(=C\C(=O)c2ccccc2)C(C)(C)c2ccccc21,-0.3,1
COC(=O)C(C)(C)NC(=O)Nc1ccc(Cl)cc1Cl,6.2,16
COc1cc(/C=c2\sc3nc4ccccc4n3c2=O)ccc1OCc1ccc(Br)cc1,0.1,x
COc1ccc(-c2nc3scc(CCNS(=O)(=O)N(C)C)n3n2)cc1,x,6
Cc1noc(C)c1C(=O)Sc1nccc(C(F)(F)F)n1,4.9,x
CCc1ccc(N2CC(C(=O)N3CCCC3)CC2=O)cc1 (centres undefined),-0.6,3
CCc1nn(CC(=O)N(C)C2CCCCC2)c(=O)c2cc3cc(C)ccc3n12,0.7,-13
CCOc1ccc(-n2c(=O)[nH]cc(C(=O)N3CCCc4ccccc43)c2=O)cc1,1.2,-2
CC(Sc1nnc(CCNC(=O)c2ccccc2F)n1C)c1nc2ccccc2c(=O)[nH]1 (centres undefined),-1.8,4
CN(C)C(CNS(=O)(=O)c1ccc2c(c1)OCCO2)c1ccco1 (centres undefined),x,-9
O=C(/C=C/c1ccco1)Nc1ccc(-c2nc3ccccc3[nH]2)cc1,-6.7,8
COc1ccc(CCNC(=O)C2OCCc3ccccc32)cc1OC (centres undefined),x,-17
O=C(Nc1cccc2ccccc12)OCCn1nnnc1CN1CCOCC1,-0.8,1
Cn1c(=O)c2c(ncn2CC(O)COc2ccccc2)n(C)c1=O (centres undefined),1.9,x
CCC(=O)c1c(OCC(N)=O)ccc2c(C)cc(=O)oc12,-1.4,-6
O=C(Nc1nccs1)c1ccc2c(c1)C(=O)N(CC1CCCO1)C2=O (centres undefined),x,4
Oc1c(Cl)cc(Cl)cc1/C=N/NCCc1ccccn1,x,-8
COC(=O)c1ccccc1OCC#N,0.0,x
COc1cccc2c(=O)n(CC(=O)N3CCOCC3)ccc12,x,-6
COc1cc2ccccc2cc1C(=O)Nc1ccc(F)cc1F,x,0
COc1cccc(CNC(=O)CC2=NS(=O)(=O)c3ccccc3N2)c1,x,-32
CCN(c1ccc(NC(=O)c2cc(Cl)c3c(c2)OCCCO3)cc1)C(C)C,x,-9
CC(=O)c1cc(C#N)c(=O)[nH]c1C,3.2,x
O=C(O)c1ccc(Nc2nnc(-c3c[nH]c4ccccc34)o2)cc1,x,-6
Cc1cc(C(=O)CN2C(=O)NC3(CCSc4ccc(F)cc43)C2=O)c(C)n1CC1CCCO1 (centres undefined),x,-16

# Carrying on:
Molecule,MgrA-DNA mod,S aureus helic
O=C1CC(Nc2ccc(N3CCOCC3)cc2)C(=O)N1C1CCCCC1 (centres undefined),x,-11
C=C(C)CN1c2ccccc2Sc2ccccc21,1.1,0
CC1CCCC(C)N1C(=O)COC(=O)c1cccnc1Cl (centres undefined),-0.1,-12
C(=N\n1cnnc1)/c1ccc2c(c1)OCO2,x,-25
CCn1c(=O)c2c(n3c(=S)[nH]nc13)-c1ccccc1CC21CCCCC1,2.2,2
CCCCCC(=O)C1CCCCC1=O (centres undefined),4.0,-1
CCn1c(=O)cc(OCC(=O)NCc2ccc(OC)cc2OC)c2ccccc21,x,11

# Not all compounds are listed; rates above refer to the full screens.
